# Source: PubChem BioAssay
# RanGTP-Impb inh – disruptors of Ran-importin-beta complex formation – biochemical, FRET, CFP-Ran, YFP-importin-beta, homogeneous, primary screen; inhibition, % (concentration not given with the values); 300,000 compounds, 1.1% hits; AID 2216; cell-free CFP-Ran/YFP-importin-beta FRET ratio;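 active = most replicates above 15%; inconclusive = exactly half above 15%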;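 note: 0% = DMSO wells and 100% = Ran loaded with GDP instead of GTP; wells of about 40 µL received 100 nL stock; the first replicate is given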
# Beta2AR agonist – human beta-2 adrenergic receptor agonism by FAP. 340,000 compounds, 0.43% hits. P07550. Am2.2-beta2AR cells, FAP receptor internalization, flow cytometry; reference of the scale not given here. response, % (concentration not given with the values);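 active = response above a set limit, near 3 SD of response in nonfluorescent compounds, cut at about 42% in these data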;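 note: stock transfer was 100 nL into about 11 µL; a reference agonist was the positive control; negative values mostly stem from fluorescent compounds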
# Calb FLC – affects C. albicans growth with fluconazole. C. albicans CaCi-2 (fluconazole-resistant clinical isolate) + fluconazole, Alamar Blue growth, 48 h. growth inhibition, % (concentration not given with the values). 300,000 compounds, 0.57% hits. AID 1979;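 active = most replicates above 75%; inconclusive = exactly half above 75%; inactive = most below 75%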;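 note: all wells also contain fluconazole at 8 µg/ml as a sub-toxic cotreatment; 0% = median of DMSO wells and 100% = median of geldanamycin control wells; wells of about 8 µL received 7.5 nL stock; the first replicate is given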
# Bfl-1 A1 inh – inhibitors of the anti-apoptotic protein A1, read as caspase activation. MEF A1-2A-BIM cells, Caspase-Glo 3/7 luminescence, 3 h; percent of clofoctol response, vehicle zero. caspase activation, % (concentration not given with the values). 330,000 compounds, 0.066% hits;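 active = over half of replicate activation scores above 10%, or exactly half above 10 with the replicate mean above 10; inconclusive = replicate mean below 10 yet half the replicates above 10; inactive = over half of replicates below 10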;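 note: wells of about 30 µL received 50 nL stock; many hits fall short of the cut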
# T cruzi repl – blocks replication of Trypanosoma cruzi. T. cruzi beta-gal in NIH3T3, luminescence, 90 h. AID 1885. inhibition, % (test concentration not listed). 300,000 compounds, 1.4% hits;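 active = mean inhibition across valid replicates above about 55%, limit read from the data; inconclusive = mean below that limit but half or more replicates reach it; inactive = mean below it, under half of replicates reach it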;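 note: signal also drops with host cell toxicity which is not excluded here; 0% = plate median of DMSO wells and 100% = zero luminescence signal; higher percent means less beta-gal luminescence so fewer parasites; stock transfer was 50 nL into about 50 µL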
# LANA-H2B inh – blocks KSHV LANA binding to histone H2A/H2B | Q9QR71 | inhibition, % (no concentration beside the values) | cell-free LANA-H2A/H2B peptide, fluorescence polarization | AID 2629 | 320,000 compounds, 0.6% hits; in the data active = inhibition mostly above about 10%, no sharp cut-off; inactive = mostly below about 6.7%;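 note: stock transfer was 7.5 nL into about 10 µL; 0% = median of vehicle wells and 100% = median of positive control wells; one replicate is shown; the record names a cut of 25% in any replicate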
# Target sequence (Q9QR71 whole entry, looked up): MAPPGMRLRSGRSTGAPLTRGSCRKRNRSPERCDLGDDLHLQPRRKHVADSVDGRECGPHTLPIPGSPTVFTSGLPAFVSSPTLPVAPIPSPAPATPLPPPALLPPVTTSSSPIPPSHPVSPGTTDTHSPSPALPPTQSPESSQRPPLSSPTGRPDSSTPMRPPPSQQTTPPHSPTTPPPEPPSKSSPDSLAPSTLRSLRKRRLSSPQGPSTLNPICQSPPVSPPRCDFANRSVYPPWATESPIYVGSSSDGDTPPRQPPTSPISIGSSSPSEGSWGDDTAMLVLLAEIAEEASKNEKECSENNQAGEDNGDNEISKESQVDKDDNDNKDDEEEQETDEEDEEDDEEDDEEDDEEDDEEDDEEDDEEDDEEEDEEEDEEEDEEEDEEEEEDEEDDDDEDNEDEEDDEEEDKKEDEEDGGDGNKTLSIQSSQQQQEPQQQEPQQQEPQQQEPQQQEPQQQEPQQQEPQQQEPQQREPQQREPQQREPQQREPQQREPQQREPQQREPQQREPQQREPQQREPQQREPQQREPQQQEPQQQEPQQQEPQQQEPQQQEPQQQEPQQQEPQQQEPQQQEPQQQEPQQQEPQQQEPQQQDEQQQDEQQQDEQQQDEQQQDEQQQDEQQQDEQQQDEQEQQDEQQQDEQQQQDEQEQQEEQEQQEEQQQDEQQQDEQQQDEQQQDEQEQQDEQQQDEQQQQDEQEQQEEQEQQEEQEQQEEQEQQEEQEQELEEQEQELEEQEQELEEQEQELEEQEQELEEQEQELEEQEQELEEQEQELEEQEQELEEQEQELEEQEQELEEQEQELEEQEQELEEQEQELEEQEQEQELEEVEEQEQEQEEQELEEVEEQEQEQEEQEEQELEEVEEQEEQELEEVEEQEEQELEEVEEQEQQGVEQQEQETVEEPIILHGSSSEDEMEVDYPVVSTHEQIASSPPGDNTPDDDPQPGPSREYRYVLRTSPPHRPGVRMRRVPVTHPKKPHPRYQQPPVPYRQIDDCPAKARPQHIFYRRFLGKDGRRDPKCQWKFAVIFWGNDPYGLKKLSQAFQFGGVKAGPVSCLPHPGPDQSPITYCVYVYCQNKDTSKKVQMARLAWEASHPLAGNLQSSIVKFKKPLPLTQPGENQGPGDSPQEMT
# Beta cell apopt – blocks beta cell apoptosis | INS-1E cytokine-induced death, ATP luminescence, 48 h; percent of positive-control rescue, neutral wells zero | protection from apoptosis, % (no concentration beside the values) | 300,000 compounds, 0.8% hits | AID 435005;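 active = all replicates at 75% or more, or half of them and the mean; inconclusive = half reach 75% but not the mean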;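 note: 0% = cytokine-treated negative control wells and 100% = positive control rescue; higher means more ATP so stronger rescue from cytokine killing; wells of about 40 µL received 100 nL stock; the first replicate is given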
# UCH37 inh – inhibitors of human deubiquitinating enzyme UCH37 | Q9Y5K5 | purified proteasome/UCH37, Ub-AMC cleavage fluorescence | inhibition, % (test concentration not listed) | 330,000 compounds, 0.33% hits | AID 588478;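 active = mean of two replicates above 20%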;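 note: 0% = compound-free wells with enzyme and 100% = wells lacking proteasome; stock transfer was 100 nL into about 20 µL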
#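 Material: Human UCH37 enzyme supplied as purified proteasome complex | Schedule: 30 min preincubation with enzyme, 25 min cleavage at room temperature | Detection: AMC fluorescence 355/460 nm | Measure: % inhibition of Ub-AMC cleavage fluorescence | Controls: Wells without proteasome as full block, compound-free enzyme plus substrate as uninhibited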
# The depositor's hits bear a star; u = inconclusive; x = not tested or not shown.
SMILES	LANA-H2B inh	Beta2AR agonist	Calb FLC	Bfl-1 A1 inh	Beta cell apopt	UCH37 inh	RanGTP-Impb inh	T cruzi repl
CCOC(=O)C1=C(CCl)NC(=O)NC1c1ccc2c(c1)OCO2 (stereo not given)	1.1	-0.3	1.1	0.3	-6.9	0.6	u	0.1
NNC(=O)c1ccccc1-n1cccc1	-1.8	3.9	-15.6	0.3	-11.1	4.9	-4.1	-1.3
NC(=O)c1ccc(N=Nc2c(O)c3ccccc3[nH]c2=O)cc1	0.5	x	1.5	-1.1	-1.8	x	-1.1	5.2
O=C(O)CCC(=O)Nc1ccc(Oc2ncnc3cc(Cl)ccc23)nc1	0.4	5.4	-4.3	0.6	1.9	1.2	0.2	-7.3
O=C(NC1CC1)C1=COCCO1	0.7	-3.7	-4.9	0.2	-6.7	1.1	-2.5	-17.3
C/C(=N\NC(=O)c1ccc(F)cc1)c1ccc(N2CCOCC2)cc1	-6.2	12.2	-0.9	0.2	-4.0	x	1.1	4.3
CCCCC(CC)C(=O)Nc1ccccc1C(=O)NC(C)C (stereo not given)	-0.2	3.9	5.8	-0.2	0.0	5.7	2.6	-5.6
COc1ccc(NC(=O)CCS(=O)(=O)c2cc3c(cc2Cl)NC(=O)CO3)cc1OC	3.1	8.8	-6.1	0.4	1.3	4.1	-1.5	1.4
COC(=O)C1=NN(C(C)(C)CC(C)=O)C2C(=O)N(C3CCCCC3)C(=O)C12 (stereo not given)	-2.3	3.7	-6.4	0.3	1.8	-0.9	-0.1	-4.5
O=C(c1ccc(NC(=O)C2(c3ccccc3)CCCC2)cc1)N1CCOCC1	0.2	4.7	1.6	0.2	-9.3	0.3	3.3	-12.4
CC(C)c1nnc(NC(=O)CCC(=O)Nc2ccc(Cl)cc2)s1	1.8	-2.6	x	1.3	0.5	1.5	0.5	1.7
COc1ccc(OCC(=O)N2CCN(c3nnc(-c4ccc(C)cc4)c4ccccc34)CC2)cc1	-2.1	-1.1	8.3	0.7	33.4	3.7	-0.5	2.9
O=C(/C=C/c1c(F)cccc1Cl)Nc1ncccn1	-3.3	-19.0	1.8	-3.4	-0.3	1.6	u	-53.7
COC1(c2cc(-c3ccccc3)nc(N)n2)CCCCC1	-3.7	8.4	13.8	-0.5	-4.2	-1.1	u	17.6
CC(C)(C)c1nc(NCC2CCCO2)c2nnn(Cc3ccccc3)c2n1 (stereo not given)	4.9	-17.1	-3.7	0.5	10.5	-1.9	0.1	48.8
CC(Oc1ccc(Cl)cc1)C(=O)NNC(=S)NC(=O)c1ccco1 (stereo not given)	1.7	3.0	u	-0.2	15.8	4.9	-1.0	-23.1
CC(C)N(CCCNC(=O)c1ccc(CS(=O)(=O)c2c(Cl)cccc2Cl)o1)Cc1ccccc1	-0.3	-10.6	5.1	1.0	-3.7	1.4	-1.8	18.0
CCCN(CCC)S(=O)(=O)c1ccc(NS(=O)(=O)c2ccc(F)cc2)cc1	-1.5	10.9	u	-1.3	5.6	0.6	-1.0	0.2
CC(=O)c1cccc(Nc2nc(-c3cccc([N+](=O)[O-])c3)cs2)c1	2.6	9.9	-14.5	0.5	2.0	x	5.1	44.0
CC(C)Oc1ccc(CCc2nnc(SCC(=O)O)n2-c2ccccc2)cc1	-0.5	3.6	-13.6	0.2	x	1.5	-0.8	-16.7
O=C(Nc1nncs1)c1c(F)c(F)c(F)c(F)c1F	1.9	-1.0	13.4	0.3	-4.1	-0.6	1.2	-6.1
O=C(C1=C(O)C(=O)N(CCN2CCOCC2)C1c1ccccn1)c1cccs1 (stereo not given)	-0.9	-3.9	-1.4	-1.1	-1.4	8.1	25.6*	-9.3
O=C(C1CCN(S(=O)(=O)c2cccs2)CC1)N1CCN(c2ccccc2)CC1	4.0	6.3	-1.6	-0.3	-4.6	2.3	5.8	6.6
O=C(Nc1cccc(-c2csc(Nc3cccc(C(F)(F)F)c3)n2)c1)c1ccccc1	-0.7	6.1	3.7	-1.6	16.3	x	0.3	32.4
COC(=O)c1c(NC(=O)c2cccs2)sc2c1CCCC2	4.1	-5.7	-8.1	-0.2	1.7	x	0.2	23.9
Cc1cc(C)n(Cc2ccc(C(=O)Nc3cccc(Br)c3)o2)n1	-2.6	-3.4	-2.1	0.5	-5.5	1.4	-2.5	11.1
Cc1cccc(Cc2nnc(CCC(=O)N3CCCC(CN4CCOCC4)C3)o2)c1 (stereo not given)	-2.2	-3.2	-32.1	0.4	x	-0.9	u	-1.5
CCOC(=O)C(C)Sc1ncc(OC)c(Sc2ccc(Cl)cc2)n1 (stereo not given)	2.3	15.7	u	0.4	-2.1	4.6	3.6	8.1
COc1ccccc1CNc1ccc(Br)cn1	-4.3	12.4	-32.4	-0.4	x	3.0	7.4	5.5
c1ccc(CSc2nc3ccccc3[nH]2)cc1	-1.1	-21.0	-2.9	-10.4	7.3	1.7	-0.7	-1.1
CSc1ccc(CN2CCC(Oc3ccc(C(=O)N4CCCC4)cc3)CC2)cc1	3.1	51.1*	-14.3	-0.4	-4.2	3.6	2.1	6.8
COc1ccc(C(=O)NC(=S)NCC2CCCO2)cc1 (stereo not given)	-4.1	-4.5	27.7	-0.4	x	1.0	2.1	0.3
O=C(Nc1ccc(F)cc1)C(Cc1ccccc1)n1cccc1 (stereo not given)	7.8	17.0	2.0	0.6	-7.6	1.0	-0.8	-10.2
COc1ccccc1NC=C1C(=O)OC(C)(C)OC1=O	1.4	-2.7	-14.4	0.5	0.4	10.4	-1.1	-5.5
COc1ccc(C(=O)N2CCCC(c3nc(-c4cccs4)no3)C2)cc1 (stereo not given)	-2.8	-14.2	19.1	1.1	-0.8	1.2	x	-1.0
C/C(=N\NC(=O)c1cccc(C)c1)c1ccc(N2CCOCC2)cc1	-0.6	2.3	-2.7	1.0	3.0	x	2.7	10.7
CC(C)[C@H](NC(=O)c1ccco1)C(=O)OCC(=O)N(C)c1ccccc1	2.0	-4.5	-28.2	0.5	-3.7	3.8	1.2	-11.5
O=S(=O)(c1ccc(F)cc1)N1CCC2(CC1)OCCO2	1.3	3.4	1.8	2.7	x	4.7	1.9	-6.4
Cc1cc(=O)oc2c1c(C)nn2-c1cccc(Cl)c1	-4.1	-5.7	29.7	-0.4	5.7	4.2	6.4	8.4
Cc1ccc(N2CC(C(=O)Nc3ccncc3)CC2=O)cc1 (stereo not given)	-7.5	-2.2	-7.3	-1.0	-1.1	2.5	3.8	6.2
CC(=O)Nc1c([N+](=O)[O-])cc2[nH]c(=O)[nH]c2c1[N+](=O)[O-]	2.9	-11.4	-14.3	-0.1	-1.2	x	0.7	-6.8
CCN(CC)S(=O)(=O)c1cccc(-c2nnc(SCC(=O)c3cc(C)n(C4CC4)c3C)o2)c1	-3.6	-0.8	-19.2	-1.0	5.7	-1.5	-4.1	31.9
CCOC(=O)N1CCC(NC(=O)C(NS(=O)(=O)c2cccc3nsnc23)c2ccccc2)CC1 (stereo not given)	3.4	-3.5	38.5	0.8	-0.3	0.8	4.3	5.6
Cc1ccc(-c2nn(C)c(=O)c3ccccc23)cc1CNS(C)(=O)=O	-7.1	3.2	-1.7	0.3	6.0	2.0	0.1	-3.4
O=C(Nc1cc([N+](=O)[O-])ccc1O)c1ccc2c(c1)C(=O)N(Cc1ccco1)C2=O	-12.5	12.1	35.7	-2.9	-2.1	10.0	-0.9	-17.8
CC(C)Oc1ccc(C(=O)CCN2CCCCC2)cc1	3.2	0.1	-22.4	-0.5	-29.1	1.2	4.1	20.8
Cc1ccccc1P(=O)(CO)c1ccccc1C	-0.5	11.6	1.4	0.3	-3.6	1.9	5.9	-9.3
Cc1nc2ccc(S(=O)(=O)NC(C(=O)NC3CCCC3)C(C)C)cc2s1 (stereo not given)	0.5	-5.6	7.2	1.1	x	3.7	-1.9	-5.4
CC(C)c1cc(NC(=O)CSc2nnc(-c3ccccc3F)n2C)on1	1.6	2.0	-0.1	-0.3	-3.1	1.8	2.5	-3.6
COCCNC(=S)N(CCc1c(C)[nH]c2ccc(C)cc12)Cc1cc(OC)c(OC)c(OC)c1	5.6	6.4	25.8	0.8	-0.3	3.6	-0.6	24.5
CC(Sc1ccsc1[N+](=O)[O-])C(=O)NCc1ccccc1 (stereo not given)	22.2*	x	-19.7	0.3	-6.8	x	-1.5	-0.2
C[C@H](NS(=O)(=O)c1ccc(Cl)c(Cl)c1)C(=O)OCc1cc(=O)n2cc(Br)ccc2n1	2.2	-12.9	1.6	-0.4	-1.8	-4.7	-0.8	-16.3
O=C(NCCCO)c1ccc2[nH]c3c(c2c1)CCCC3	-1.5	-2.1	-5.8	-0.1	-11.1	-1.5	11.5	-17.2
Cn1ccnc1-c1nnn(-c2ccc(Cl)c(Cl)c2)n1	0.3	-2.6	-5.6	0.3	-12.0	x	-0.1	-6.7
O=C(CCn1c(=O)c2cccn2c2cccnc21)N1CCN(c2cccc(Cl)c2)CC1	-1.7	-3.0	3.5	0.6	6.1	3.2	4.3	3.3
Cc1ccc(-c2cc(C(=O)Nc3ccc(S(=O)(=O)Nc4onc(C)c4C)cc3)c3ccccc3n2)cc1	2.4	-0.2	24.0	-0.1	6.5	2.1	4.1	-7.6
CN(Cc1nc2ccccc2c(=O)[nH]1)c1ccccc1	2.1	-5.4	0.1	0.4	-10.3	0.3	-0.9	-14.0
Cc1ccc(S(=O)(=O)N2CCN(C(=O)COC(=O)c3cncc(Br)c3)CC2)c(C)c1	6.1	12.9	x	1.0	0.4	-1.0	x	x
Cc1nc(NC(=O)C2CCCCC2C(=O)O)sc1C (stereo not given)	0.4	1.3	-5.8	2.3	-3.7	0.0	0.2	-21.8
CNC(=O)C1CCN(S(=O)(=O)c2c(C)noc2/C=C/c2ccc(OC)cc2)CC1	3.0	-4.5	-0.7	-0.1	-4.7	-20.5	2.7	14.8

# Next compounds follow.
SMILES	LANA-H2B inh	Beta2AR agonist	Calb FLC	Bfl-1 A1 inh	Beta cell apopt	UCH37 inh	RanGTP-Impb inh	T cruzi repl
O=C(NCC(O)COc1ccc([N+](=O)[O-])cc1)Nc1ccccc1 (stereo not given)	-1.8	-1.8	-4.5	0.2	-1.0	4.5	3.5	2.1
COC(=O)c1ccccc1NC(=S)NC(=O)COc1ccc(C)cc1	3.3	4.7	-11.0	0.2	-1.7	-1.9	6.0	-7.3
Cc1nn(CCCC(=O)Nc2ccccn2)c(C)c1[N+](=O)[O-]	-0.8	5.0	11.8	0.5	x	5.7	u	-17.6
CCC(=O)N(Cc1cc2ccccc2[nH]c1=O)c1ccc(OC)cc1	-2.4	-10.2	-12.5	0.5	-4.4	2.1	-2.7	4.7
Cc1ccc(S(=O)(=O)CCC(=O)OCc2cc(=O)oc3cc(C)ccc23)cc1	-1.7	-5.9	x	0.0	-7.5	0.9	x	x
O=C(Nc1cc(S(=O)(=O)N2CCCCCC2)ccc1OCC(F)(F)F)c1cnccn1	5.9	-6.4	x	0.7	6.9	-3.5	x	x
COc1cc(C(=O)N/N=C/c2ccc(OC(=O)c3ccccc3Cl)cc2)ccc1O	1.3	16.9	3.4	1.0	-3.3	x	2.2	-22.7
